# H5N1 CPE = MDCK cell protection from H5N1 avian flu | actives 0.07% (n = 96,000) | cytopathic effect, luminescence, 72 h; hits give high values; no value below 0 was filed and about half of the inactive calls have no number; reference of the scale not given here | inhibition, % at 50 µM; in the data active = inhibition above about 25%
# * = called active by the depositor; i = inactive. A portion of the library; count on the stated rates, not on these rows.
cpd	SMILES	H5N1 CPE
1	COc1cc(OC)c(OC)cc1/C=N/n1c(C)nnc1C	0.6
2	CCSc1n[nH]c2nc3c(c(=O)n12)C1(CCCC1)Cc1ccccc1-3	i
3	CCCn1c(=O)c2ccccc2n2c(SCC(=O)NCc3cccs3)nnc12	2.8
4	NC(=O)c1ccc([N+](=O)[O-])cc1SCc1ccccc1	3.6
5	O=C(c1cccc(F)c1)n1nnc2ccccc21	i
6	COc1ccc(CN2CCCCC2c2cccnc2)cc1C (stereo unspecified)	0.4
7	O=C(Nc1ccccc1)c1ccc(S(=O)(=O)N2CCCCC2)cc1	2.1
8	CCOC(=O)c1sc(NC(=O)/C=C/c2cnn(CC)c2C)c(C(=O)OCC)c1C	i
9	CNC(=O)CC(C(=O)O)c1ccc(OCC(C)C)cc1 (stereo unspecified)	i
10	CCN(CC)c1ccc(C(=O)OCC(=O)NC2CCCCC2C)cc1 (stereo unspecified)	0.1
11	Cc1ccc(O)c(-c2cc(-c3ccccc3C)[nH]n2)c1	3.5
12	CCc1nnc(NC(=O)C(NS(=O)(=O)c2ccc3c(c2)OCCO3)C(C)C)s1 (stereo unspecified)	0.2
13	COc1ccc(C2C(C(=O)Nc3ccc4c(c3)OCCO4)c3ccccc3C(=O)N2C)cc1 (stereo unspecified)	0.6
14	Clc1ccc(-c2onc3c2CCCC3)cc1	1.0
15	Cc1cc2c(cc1C)-c1nnc(-c3ccc4ccccc4n3)n1C(C)(C)C2	i
16	CCOC(=O)N1CCN(Cc2oc(CO)cc(=O)c2O)CC1	0.4
17	Cc1c(C(=O)O)oc2ccc(S(=O)(=O)N(CC(C)C)CC(C)C)cc12	0.2
18	Cc1cc2cc(CN(CCN3CCOCC3)C(=O)Nc3ccccc3F)c(=O)[nH]c2cc1C	i
19	CC(=O)Nc1ccc(OCC(O)CN2CCN(c3ccc(C)c(Cl)c3)CC2)cc1 (stereo unspecified)	5.1
20	O=C(NC(=S)NC1CCCCCCCCCCC1)c1cccnc1	i
21	Cc1nnc2n1-c1ccc(Br)cc1C(c1ccccc1Cl)=NC2	0.4
22	O=C(O)CSCNC(=O)CC12CC3CC(CC(C3)C1)C2	i
23	CCOC(=O)N1CCC(NC(=O)c2cc(C(=O)NCc3cccc(Cl)c3)ccc2CO)CC1	i
24	Cc1nc2ccc(-c3nc4cc(N)ccc4o3)cc2[nH]1	i
25	CC(C)(C)NC(=O)C1CCN(C(=O)c2ccc(Br)cc2)CC1	0.6
26	O=C(NCc1ccc2c(c1)OCO2)c1cc(-c2ccccc2)on1	i
27	CC(C)COC(=O)CNc1n[nH]c(=S)[nH]c1=O	0.1
28	CCn1c(SCC(=O)Nc2cc(C)on2)nc2c1c(=O)n(C)c(=O)n2C	0.8
29	COc1ccc2c(c1OC)C(=O)N(c1cccc(C)c1)C2	0.5
30	CN1CCN(S(=O)(=O)c2cccc(S(=O)(=O)c3cccc(S(=O)(=O)N4CCN(C)CC4)c3)c2)CC1	2.6
31	COc1cccc(-c2nnc(SCC(=O)N3CCCC3=O)n2-c2ccccc2)c1	i
32	CCOc1ccccc1C(=O)N1CCC(n2nnc3cc(C(F)(F)F)ccc32)CC1	0.3
33	O=C(CCS(=O)(=O)c1cccs1)N1CCN(c2ccc(F)cc2)CC1	i
34	CCOC(=O)C1=NNC2C(=O)N(C3CCCCC3)C(=O)C12 (stereo unspecified)	i
35	Cc1ccc(N2C(=O)Nc3ccc(Br)cc3C2(O)C(=O)NCCCN(C)C)cc1C (stereo unspecified)	i
36	O=C(NC1CCCCCCC1)C1CCN(S(=O)(=O)N2CCCC2)CC1	i
37	Cc1c(Cl)cccc1N1C(=O)c2ccccc2C1=O	i
38	COc1ccc(OC)c(S(=O)(=O)Nc2ccc(F)cc2)c1	i
39	Cc1nc2cncc(Br)c2n1C	1.5
40	CC(C)Oc1ccc(C(=O)NCc2ccco2)cc1	1.9
41	O=S(=O)(Nc1ncccn1)c1ccc(Nc2ncnc3ccccc23)cc1	0.6
42	CCOC(=O)N1CCN(c2c(NCCOC)c(=O)c2=O)CC1	1.1
43	Cc1cc(NC(=O)CSc2c(C)[nH]c3ccccc23)no1	2.4
44	CCOC(=O)c1ccc(NC(=O)C2(c3ccc(Cl)cc3)CCCC2)cc1	i
45	Cn1c(=O)c2[nH]c(NCCCN3CCOCC3)nc2n(C)c1=O	0.9
46	COC(=O)NCC12CC3CC(C1)CC(CNC(=O)OC)(C3)C2	i
47	CC1CCN(S(=O)(=O)c2cccc(C(=O)O)c2)CC1	0.1
48	CCOc1ccc2nc(NC(NC(C)=O)(C(=O)OC)C(F)(F)F)sc2c1 (stereo unspecified)	0.5
49	CC1CCCCN1S(=O)(=O)c1ccc(NC(=O)c2ccco2)cc1 (stereo unspecified)	i
50	COc1ccc(N2C(=O)C3C4C=CC(CC4)C3C2=O)c([N+](=O)[O-])c1 (stereo unspecified)	1.3
51	CCOC(=O)c1sc2ncn(/N=C/N(C)C)c(=O)c2c1C	i
52	O=C(c1ccc2c(c1)OCO2)N1CCN=C1SCc1cccnc1	3.6
53	O=C(Cn1cnc2c(cnn2-c2ccc(F)cc2)c1=O)N1CCN(c2ccccc2F)CC1	i
54	Cc1ccc(N(CC(N)=O)C2SC(=O)N(Cc3ccccc3)C2=O)cc1 (stereo unspecified)	0.4
55	O=C(CN1CCOCC1)NCC12CC3CC(CC(C3)C1)C2	i
56	CCCCNC(=O)CSc1nc2ccccc2c(=O)n1Cc1ccc2c(c1)OCO2	i
57	CC(C)(C)n1[nH]c2c3c(ccc2c1=O)C(=O)c1ccccc1C3=O	i
58	Cc1ccc(NC(=O)CSc2nc3ccccc3c(=O)n2CCCN2CCCCC2)cc1C	i
59	CC(Sc1nc(-c2ccccc2)cc(C(F)(F)F)n1)C(=O)NCc1ccco1 (stereo unspecified)	2.1
60	C=CCn1c(=N)n(CC(O)COc2ccccc2OC)c2ccccc21 (stereo unspecified)	i

# (continued)
cpd	SMILES	H5N1 CPE
61	CCn1nc(C(=O)OC2CCOC2=O)c2ccccc2c1=O (stereo unspecified)	i
62	CC1CN(C(=O)c2cn3ccccc3n2)CC(C)O1 (stereo unspecified)	1.3
63	CN(C)S(=O)(=O)c1cccc(C(=O)NCc2cccs2)c1	i
64	Cc1ccccc1NS(=O)(=O)c1cc(C(=O)Nc2cccc(N(C)S(C)(=O)=O)c2)ccc1C	1.1
65	COc1ccc2cc(CCNC(=O)c3ccc4c(c3)OCO4)c(=O)[nH]c2c1	0.8
66	Cc1csc(NC(=O)CSc2nnc(Cn3c(=O)sc4ccccc43)n2-c2ccccc2)n1	1.0
67	CCCCNC(=O)Nc1ccc(C(O)(C(=O)OC)C(F)(F)F)cc1 (stereo unspecified)	0.1
68	CC(=O)c1c(C(C)=O)c(C)n(NC(=O)c2ccccc2Cl)c1C	i
69	N#CC1=C(N)NC(SCC(=O)Nc2ccc(Br)cc2)=C(C#N)C12CCCCC2	i
70	Cc1c(Cl)cccc1NC(=O)CCC(=O)NNC(=O)c1ccccc1Cl	i
71	O=S(=O)(NCC1CCCO1)c1cccc2nsnc12 (stereo unspecified)	0.1
72	Cc1ccc2c(=O)cc(C(F)F)oc2c1	1.0
73	CCCC(C(=O)NCC1CCCO1)N(Cc1ccco1)C(=O)CNS(=O)(=O)c1ccccc1 (stereo unspecified)	i
74	O=C(NCc1ccco1)c1cc2c(s1)CSC2	1.5
75	CC(=O)Nc1ccc(NC2=CC(=O)CC(C)(C)C2)cc1	0.2
76	O=C(c1ccco1)N1CCN(S(=O)(=O)c2cccc3nsnc23)CC1	1.8
77	CC12CN(S(=O)(=O)c3ccccc3)CC(C)(CN(S(=O)(=O)c3ccccc3)C1)C2	i
78	O=C(CCN1C(=O)c2ccccc2C1=O)Nc1ccc(S(=O)(=O)N2CCOCC2)cc1	0.8
79	COc1cc(/C=N/NC(=O)CCc2ccccc2)ccc1O	4.8
80	Cc1ccccc1C(=O)Nc1nc(=S)ss1	i

# 4 structures already listed, ordered by molecular weight, ascending.
cpd	SMILES	H5N1 CPE
72	Cc1ccc2c(=O)cc(C(F)F)oc2c1	1.0
79	COc1cc(/C=N/NC(=O)CCc2ccccc2)ccc1O	4.8
65	COc1ccc2cc(CCNC(=O)c3ccc4c(c3)OCO4)c(=O)[nH]c2c1	0.8
66	Cc1csc(NC(=O)CSc2nnc(Cn3c(=O)sc4ccccc43)n2-c2ccccc2)n1	1.0

# The results go on.
cpd	SMILES	H5N1 CPE
81	COc1ccc(C(=O)Nc2cc(OCc3ccccc3)c(Cl)cc2Cl)cc1	i
82	Cc1ccc2nc(NC(=O)Cc3cccs3)sc2c1	2.0
83	Cn1c(C(=O)NCCN2CCN(c3ccccc3F)CC2)cc2c(=O)n(C)c3ccccc3c21	i
84	CCOC(=O)c1sc(NC(=O)CSc2nnnn2-c2ccc(C)cc2)c(C(=O)OCC)c1C	1.5
85	CCc1ccccc1OCCCOc1ccc(OC)cc1	i
86	COc1ccc(CC(=O)Nc2c3c(nn2-c2cccc(Cl)c2)CS(=O)C3)cc1 (stereo unspecified)	i
87	CC(C(=O)Oc1ccc2c(c1)OCO2)N1C(=O)c2ccccc2C1=O (stereo unspecified)	0.2
88	COc1ccc(-c2csc(Cc3nnc(N4CCOCC4)n3-c3ccccc3)n2)cc1	1.7
89	COc1ccc(OC)c(C2C3=C(COC3=O)Nc3cc4c(cc32)OCO4)c1 (stereo unspecified)	0.5
90	C=CCSc1nccc(-c2cc(Cl)sc2Cl)n1	0.6
91	OCc1ccccc1NC(=S)Nc1cccnc1	i
92	COc1ccc(C(=O)NCC2OCCc3ccccc32)cc1 (stereo unspecified)	i
93	CC(C)(C)n1ncc2c(=O)n(CC(=O)Nc3ccc(Cl)cc3)cnc21	0.1
94	CC(C)Cn1c(N)c(C(=O)NCCN2CCOCC2)c2nc3ccccc3nc21	i
95	Cc1cc(C(F)(F)F)nc(NCc2cccnc2)n1	0.4
96	COCCn1c(C)cc(C(=O)COC(=O)c2n[nH]c3ccccc23)c1C	0.9
97	CC(=O)OC(C(=O)NC1CCCCC1)c1cccc(C)c1 (stereo unspecified)	0.8
98	CC(=Nc1cccc(C)c1)c1sc2ccccc2c1O	0.8
99	O=C(O)c1ccn(Cn2cnc3ccccc32)n1	i
100	COc1ccc(C2=NO[C@@H]3C(=O)N(c4cccc(C)c4C)C(=O)[C@H]23)cc1OC	0.2
101	O=C1CC(c2ccco2)CC2=C1C=Nc1ccccc1N2 (stereo unspecified)	12.6
102	CC(=O)c1cccc(NC(=S)NC(=O)CC(C)(C)C)c1	0.6
103	CCC1(C)Cc2c(sc3nc(SC)nc(N)c23)CO1 (stereo unspecified)	i
104	Cc1cccc(C(=O)NCCc2nnc(SCC(=O)Nc3nc(C)cs3)n2C)c1	0.1
105	CC(C)CCNC(=O)Cn1c2c(c(-c3ccccc3Cl)cc1=O)CCC2	i
106	O=C(CCS(=O)(=O)c1ccc(Cl)cc1)OCC(=O)N1CCCCC1	2.1
107	O=C(c1ccccc1)N1CCCC(C(=O)N2CCCCCC2)C1 (stereo unspecified)	0.3
108	Cc1ccc(SCc2[nH]nc3c2C2(CCSCC2)C(C#N)=C(N)O3)cc1	i
109	Cc1noc(C)c1S(=O)(=O)N1CCCCC1	0.8
110	Clc1ccc2[nH]c3c(NCC4CCCO4)ncnc3c2c1 (stereo unspecified)	i
111	COc1ccc(OC)c(S(=O)(=O)Nc2ccc(O)c(Sc3ncn[nH]3)c2)c1	i
112	Cc1ccc(NC(=O)Nc2cccs2)cc1	0.4
113	Cc1ccc(S(=O)(=O)c2c(C)nn(C(C)(C)C)c2OC(=O)c2ccc(Br)o2)cc1	i
114	Cc1nc(-c2cccnc2)sc1C(=O)Nc1ccc(Cl)cc1	i
115	CCCN1C(=O)C(O)(C/C(C)=N/O)c2ccccc21 (stereo unspecified)	0.5
116	CCC(C(=O)NCc1ccco1)N(Cc1cccs1)C(=O)CNS(=O)(=O)c1ccccc1 (stereo unspecified)	0.5
117	CCOC(=O)c1cnc(SCC(=O)NCc2cccs2)nc1N	i
118	COc1ccc(OC)c(N2C(=O)NC(=O)C(CCc3ccncc3)(CCc3ccncc3)C2=O)c1	0.9
119	COCCN(CC(=O)NCC1CCCO1)C(=O)CCC(=O)Nc1cc(C)on1 (stereo unspecified)	0.0
120	COc1ccc(-c2noc(-c3cccc(OC)c3OC)n2)cc1OC	i

# Pulled by compound from above, 6 records:
cpd	SMILES	H5N1 CPE
111	COc1ccc(OC)c(S(=O)(=O)Nc2ccc(O)c(Sc3ncn[nH]3)c2)c1	i
109	Cc1noc(C)c1S(=O)(=O)N1CCCCC1	0.8
115	CCCN1C(=O)C(O)(C/C(C)=N/O)c2ccccc21 (stereo unspecified)	0.5
118	COc1ccc(OC)c(N2C(=O)NC(=O)C(CCc3ccncc3)(CCc3ccncc3)C2=O)c1	0.9
108	Cc1ccc(SCc2[nH]nc3c2C2(CCSCC2)C(C#N)=C(N)O3)cc1	i
101	O=C1CC(c2ccco2)CC2=C1C=Nc1ccccc1N2 (stereo unspecified)	12.6

# (continued)
cpd	SMILES	H5N1 CPE
121	Cc1ccc(N2C(=O)C3C(C2=O)C(C(=O)c2ccc(Cl)cc2)N2CCCC32)cc1 (stereo unspecified)	i
122	COc1cccc(N=c2oc3c(C)ncc(CO)c3cc2C(N)=O)c1	1.7
123	COC(=O)c1cc(C)nc(N)c1C#N	i
124	O=C(CCCC(=O)Nc1cccnc1)Nc1cccnc1	0.1
125	CCCCN(CCCC)CCCNC(=O)CC1Oc2ccc(C)cc2NC1=O (stereo unspecified)	i
126	CC(=O)NC(CCS(C)(=O)=O)C(=O)Nc1ccc2c(c1)OCO2 (stereo unspecified)	2.0
127	CCC(C)(C)NC(=O)C(c1cccc(OC)c1)N(C(=O)c1ccn[nH]1)c1cccc(OC)c1 (stereo unspecified)	1.6
128	CS(=O)(=O)N(CC(=O)Nc1cc(Cl)ccc1Cl)c1ccccc1	i
129	COc1ccc(/C(O)=C2\C(=O)C(=O)N(c3cc(C)on3)C2c2ccccc2OC)cc1 (stereo unspecified)	1.5
130	COc1ccc(OC)c(NC(=O)CN2C(=O)NC3(CCOc4ccccc43)C2=O)c1 (stereo unspecified)	0.0
131	Cc1cc(C)nc(SCc2nnc(SCC(=O)Nc3nc(-c4ccccc4)cs3)n2-c2ccccc2)n1	0.5
132	COCCn1c(SCC(=O)N2CCC(C)CC2)nc2ccccc2c1=O	1.1

# Single entries from the results shown.
# cpd 21 | H5N1 CPE: 0.4
# cpd 45 | H5N1 CPE: 0.9

# Screens as filed in PubChem.
